Ba CapD inh = CapD enzyme inhibition; purified CapD enzyme, fluorescence intensity read-out; active compounds read low; some hits fall short of the stated cut; z-score (concentration not given with the values); actives 0.23% (n = 140,000);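 active = z-score under -4 in either of two replicates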;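 also: stock transfer was 100 nL into about 40 µL; score is relative to mean and spread of the plate; one replicate is shown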
AID504770 = growth inhibitors of E. coli YBA685 in a screen for V. cholerae RctB (chromosome II replication) inhibitors | E. coli YBA685 rctB-dependent plasmid, OD600 growth, 3 h; active compounds read low | z-score (concentration not given with the values) | actives 0.27% (n = 130,000) | AID 504770;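 active = z-score under -2 on both plates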;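 also: wells of about 30 µL received 100 nL stock; score is relative to mean and SD of the test wells; the first replicate is given; strong numbers were not always called active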
Active calls of the source: *; x = no result given; & = joins results of further samples.

Every second line gives: AID504770 | Ba CapD inh
N#Cc1ccc(CN2CCN(CC(=O)NC(=O)Nc3ccccc3F)CC2)cc1
  0.8 | x
CCOc1ccccc1NC(=O)COC(=O)CCc1nc(=O)c2ccccc2n1C
  -0.2 | x
Oc1c(Cl)cc(Cl)cc1C=Nc1ccc2c(c1)COCO2
  x | -0.035
Cn1c(=O)c2nc(NCc3ccccc3)cnc2n(C)c1=O
  -0.95 | x
N#CC1=C(N)Nc2c(oc(CO)cc2=O)C1c1conc1-c1ccc(F)cc1 (stereo not drawn)
  -0.6 | 0.16
Cc1ccc(OCC(=O)Nc2ccc(N3CCOCC3)cc2)c(-n2nc3ccccc3n2)c1
  -1.2 | -0.49
CCN(CC)CCn1c(NCc2ccncc2)nc2ccccc21
  -0.35 | 0.8
N#CC1=C(N)OC2=C(C(=O)CC(c3ccco3)C2)C1c1ccc(OC(=O)N2CCOCC2)cc1 (stereo not drawn)
  x | 0.11
NC(=O)c1ccccc1N=Cc1ccc(O)c(O)c1
  -0.6 | 25
CC(=O)C1=C(c2ccccc2)OC(N)=C(C#N)C1c1ccccc1F (stereo not drawn)
  x | 2.3
O=C(Cn1ncc2c(=O)oc3ccccc3c21)NCCN1CCN(c2ccccc2F)CC1
  -0.75 | 0.045
CCC(C)NC(=O)CN1C(=O)C(CC)Sc2ccccc21 (stereo not drawn)
  -1.1 | 0.44
COC(=O)C1C(=O)c2c([nH]c(C(=O)OC3CCCCCC3)c2C)CC1C (stereo not drawn)
  0.45 | -0.015
O=C(CSc1nnc(NC(=O)c2ccc([N+](=O)[O-])cc2)s1)Nc1ccc(Br)cc1
  x | -0.005
CC1=NN(C(=O)c2ccco2)C(O)(c2ccncc2)C1 (stereo not drawn)
  -0.85 | -0.46
O=C(c1ccc(S(=O)(=O)N2CCCCC2)cc1)N1CCN(c2ccccc2F)CC1
  -1.1 | x
COc1ccc(CNC(=O)c2ccc(N3CC4CC(C3)c3cccc(=O)n3C4)c(NC(=O)/C=C/c3ccccc3)c2)cc1 (stereo not drawn)
  x | 0.28
N#CC1=C(N)n2c(s/c(=C\c3c(F)cccc3Cl)c2=O)=C(C#N)C1c1c(F)cccc1Cl (stereo not drawn)
  x | -0.14
O=C(O)COc1ccc(/C=C2/SC(=O)NC2=O)cc1
  1.1 | -0.95
CN1C(=O)Cc2ccccc2C1=O
  -1.1 | 0.84
COCC(C)n1c(COc2ccccc2F)n[nH]c1=S (stereo not drawn)
  -1 | x
CCC1(CC)Cc2ccccc2C(C2=C(O)CC(C)(C)CC2=O)=N1
  x | -0.03
CC(C)(C)Nc1cccccc1=NCc1ccccc1
  -0.25 | 38
CC1(C)CC2CC(C)(CN2C(=O)Cc2ccccc2)C1 (stereo not drawn)
  0.15 | x
Cc1ccc(NC(=O)CCn2c(=O)sc3ccccc32)cc1C
  2 | -0.65
Cc1cccc(C(=O)OC(C)C(=O)NCC2CCCCC2)c1O (stereo not drawn)
  -0.9 | x
COc1ccc(C2Nn3c(C)nnc3SC2C(=O)c2ccc(Cl)cc2)cc1 (stereo not drawn)
  -0.65 | 0.05
COc1ccc(Br)cc1C1=N/C(=C\c2cc(OC)c(OC)c(OC)c2)C(=O)O1
  x | -0.52
CCOC(=O)c1[nH]c(COC(=O)c2ccc3c(c2)OCO3)c(C(=O)OCC)c1C
  0.4 | x
Cc1ccc2c(CC(=O)OC(C)C(=O)Nc3ccc4c(c3)OCCO4)coc2c1 (stereo not drawn)
  -0.35 | x
N#C/C(=C/c1ccccc1)C(=O)Nc1ccc(O)cc1
  -0.6 | -0.96
Brc1ccc2nc(N3CCCC3)sc2c1
  0.5 | -0.81
CSc1nnnn1-c1c(C)cccc1C
  x | 0.38
O=C(C1CC(c2ccc(Cl)cc2)=NO1)N1CCCC1 (stereo not drawn)
  -1.1 | x
COC(C)C(=O)C12CC3CC(CC(C3)C1)C2 (stereo not drawn)
  x | -0.23
N#CCSc1nc2ccccc2s1
  x | 0.46
CCOC(=O)C1CCCN(C(=O)CCS(=O)(=O)Cc2ccccc2)C1 (stereo not drawn)
  -0.85 | -0.34
CC[N+]1(C)CC2CCC(C)(C1)C2(C)C (stereo not drawn)
  1.6 | -1.2
COc1ccc(-c2ccc(C#N)c(=O)[nH]2)cc1
  2.2 | 35
O=C(CSc1nc2ccccc2o1)N1CCCc2ccccc21
  0.3 | 1.4

3 entries from above, reformatted.
| mol | AID504770 | Ba CapD inh |
| --- | --- | --- |
| CC[N+]1(C)CC2CCC(C)(C1)C2(C)C (stereo not drawn) | 1.6 | -1.2 |
| Cc1ccc2c(CC(=O)OC(C)C(=O)Nc3ccc4c(c3)OCCO4)coc2c1 (stereo not drawn) | -0.35 | x |
| CC1(C)CC2CC(C)(CN2C(=O)Cc2ccccc2)C1 (stereo not drawn) | 0.15 | x |

Later entries.
Every second line gives: AID504770 | Ba CapD inh
CC1CCCN(S(=O)(=O)c2cc(C(=O)Nc3ccc(Cl)c(Cl)c3)ccc2F)C1 (stereo not drawn)
  x | -0.39
CCOC(=O)C1=CN(c2ccc(C)c(C)c2)C=C(C(=O)OCC)C1c1ccccc1F
  -0.25 | 41
COc1ccc(-c2c(C#N)c(=O)n3c(sc4ccccc43)c2C#N)cc1
  1.8 | x
Cn1c(C(=O)NC2CCN(c3ccccc3)CC2)cc2ccccc21
  x | -0.31
CC(Oc1ccc(C(C)(C)C)cc1)C(=O)Nc1ccc(S(N)(=O)=O)cc1 (stereo not drawn)
  -0.5 | 0.045
S=C(c1cn(Cc2ccccc2)c2ccccc12)N1CCCCC1
  1.4 | -0.24
O=C(c1cccc(F)c1F)N1CCCCC1
  0.4 | -0.16
O=C1c2ccccc2C(=O)c2c1oc1c3c(ccc21)OCN(CC1CCCO1)C3 (stereo not drawn)
  0.3 | x
C=CCSc1ncnc2c1cnn2-c1ccc(Cl)cc1
  -0.75 | x
CCc1ccc(-n2c(=S)sc3c(=O)[nH]c(SCC4OCCO4)nc32)cc1
  x | -1.5
O=C(NC1(C(=O)O)CCCCC1)c1cccs1
  0.5 | x
COc1ccc(CCC(=O)Nc2ccc(S(=O)(=O)N(C)C)cc2)cc1OC
  1.1 | x
COc1cccc(N2CCN(C(=O)C(C)(C)Cc3cc(C)cc(C)c3C(=O)O)CC2)c1
  x | -0.47
COC(=O)c1cn(C(=O)c2cccs2)c2ccccc12
  -0.5 | -0.73
Cc1nc2sc(C(c3cccc(F)c3)N3CCN(C)CC3)c(O)n2n1 (stereo not drawn)
  0.55 | -0.51
CC1(C)C2CCC1(CS(=O)(=O)N1CCN(Cc3ccccc3)CC1)C(=O)C2 (stereo not drawn)
  -1.1 | x
CC(C)(C)c1cc2cc(NC(=O)c3ccc(S(C)(=O)=O)cc3)ccc2[nH]1
  x | -0.64
CCOCCn1cnc2sc(C(=O)NC3CCCCCC3)c(C)c2c1=O
  x | 5.9
O=C1N/C(=C/c2ccc(C(F)(F)F)cc2)C(=O)N1c1ccccc1
  -0.45 | -0.81
Cc1cc(C)nc(SC(C#N)c2ccccc2)n1 (stereo not drawn)
  0.95 | -0.11
Cc1cccc(N2CCN(C(=O)C3CCCN(S(=O)(=O)c4cccc5nonc45)C3)CC2)c1C (stereo not drawn)
  0.15 | 2
O=C(Nc1ccccc1)NC1CCN(CCCN2C(=O)c3ccccc3C2=O)CC1
  2.3 | x
Brc1cnc(N2CCNCC2)nc1
  x | 1.4
Clc1ccc(CN2CCN(Cc3ccc(Cl)cc3)C2c2ccncc2)cc1
  x | 0.15
CCSc1ccccc1C(=O)Nc1nc2ccccc2c(=O)[nH]1
  -1 | -0.28
Cc1nn2c3c(cnc2c1-c1ccccc1)C(=O)CCC3
  -0.95 | -0.25
Cc1cc(-c2ccccc2)n[nH]1
  -0.65&-1.4 | -0.59&0.49
N=C(N)c1ccc(Cl)cc1
  -0.6 | -0.22&0.38
Clc1ccc(CO/N=C/c2ccc(OCc3ccccc3)cc2)c(Cl)c1
  x | -0.06
Cc1cc(C)c(NC(=O)CSc2nnc(CNC(=O)c3c(F)cccc3Cl)o2)c(C)c1
  -1.7 | 0.9
CC(CCc1ccccc1)NC(=O)CSc1nc2ccccc2[nH]1 (stereo not drawn)
  1.2 | -0.2
NC(=O)c1cc2cc(Cl)cc(Cl)c2oc1=Nc1cccc(C(F)(F)F)c1
  x | -0.2
CCCN1CCN(c2ncnc3sc(C(=O)N4CCN(c5ccccc5F)CC4)c(C)c23)CC1
  x | -0.18
CCCNC(=O)NC1CCC(CC)CC1 (stereo not drawn)
  -0.75 | 0.085
CCOC(=O)c1c(C)nc2c(c1C)c(=O)oc1ccccc12
  -0.1 | x
CC(C(=O)O)c1nn(C)c(=O)c2ccccc12 (stereo not drawn)
  1.1 | x
Cc1ccc(NC(=O)COn2nnc3ccc(S(=O)(=O)N(C)C)cc32)cc1F
  0.25 | x
Nc1nc(SCC(=O)c2ccc3c(c2)OCCO3)nc(-c2ccccc2)n1
  0.5 | x
COC(=O)C1=C(C(=O)OC)SC(=C2C(=S)C(C)(C)N(C(=O)c3ccccc3-c3ccccc3)c3ccc(C)cc32)S1
  x | 0.23
NS(=O)(=O)c1cc(C(=O)OC2CCOC2=O)ccc1Cl (stereo not drawn)
  -0.15 | x
c1ccc(CC2COC(C3=N[C@@H](Cc4ccccc4)CO3)=N2)cc1 (stereo partly drawn)
  -0.6 | 0.53
Cc1cccc(Nc2cc(NCc3ccccc3)c3noc4c3c2C(=O)c2ccccc2-4)c1
  x | -0.28
CCOC(=O)C1=C(C)N=c2s/c(=C\c3ccc(OC(C)=O)c(OC)c3)c(=O)n2C1c1ccc(OCC)c(OCC)c1 (stereo not drawn)
  x | -0.32
Cn1c(C2COc3ccccc3O2)n[nH]c1=S (stereo not drawn)
  0.6 | -0.48
CCOC(=O)c1cc2c(ccn2-c2ccc(F)cc2)n1CC(=O)Nc1ccc(OC)cc1
  0.55 | x
FC(F)(F)c1cc(-c2ccccn2)nc2cc(C3CC3)nn12
  2.5 | 0.21
O=C(O)CSCc1ccccc1
  x | 0.33
COC(=O)Cn1cnc2c(cnn2-c2ccccc2C)c1=O
  -0.25 | x
CCOCCOC(=O)C1=C(C)NC2=C(C(=O)CC(c3ccc(OC)cc3)C2)C1c1ccc([N+](=O)[O-])cc1 (stereo not drawn)
  x | -0.62
CC(SCC(=O)O)(SCC(=O)O)c1cccc([N+](=O)[O-])c1
  x | -0.9
O=C(Nc1cccc(Cl)c1)c1cccs1
  0.1 | -0.45
NC(=S)Nc1ccc(F)c(F)c1F
  x | 0.055
O=C(O)CCc1nn2cnc3sc4c(c3c2nc1=O)CCCC4
  -0.75 | 0.095
C=CCOC(=O)C1=C(C)OC(N)=C(C(=O)OCC)C12C(=O)Nc1ccccc12 (stereo not drawn)
  x | 0.055
NC(=O)CSc1nnc(-c2ccccc2Br)n1Cc1ccccc1
  -0.9 | -1.2
O=C1c2ccncc2C(=O)N1c1ccc(N2CCOCC2)cc1
  -0.55 | 0.04
O=C(CSc1nc2ccccc2c(=O)n1-c1ccccc1)c1ccccc1
  -0.05 | -0.075
O=C(c1ccc(Cl)cc1)N(Cc1cccs1)C1CCS(=O)(=O)C1 (stereo not drawn)
  0.65 | 0.52
CC(C)(C)OC(=O)NC1CCN(c2nccc(C(F)(F)F)n2)CC1
  1.4 | -0.47
CCc1ccccc1NC(=O)c1c(NC(=O)C(C)(C)C)sc2c1CCC2
  x | -0.08

Remaining list, next part.
Every second line gives: AID504770 | Ba CapD inh
COCCn1c(C)cc(C(=O)COc2ccc3c(c2)OCO3)c1C
  -0.6 | x
CCSC1=NCN(CCCC(=O)O)CN1
  -0.35 | 0.72
O=C(Nc1ccc2ccccc2c1)C(=O)c1c(O)[nH]c2ccccc12
  -0.05 | -0.17
COc1ccc(C=C2C(=O)C3(C)CCC2C3(C)C)cc1 (stereo not drawn)
  -0.5 | -2.5
CC(C)c1ccc2[nH]c3c(c2c1)CCCC3=O
  0.05 | 0.22
CCOC(=O)C1=C(C(=O)OCC)SC2(S1)C(C(=O)OCC)=C(C(=O)OCC)SC1=C2c2ccccc2N(C(=O)CC(C)C)C1(C)C
  x | -0.44
COc1cccc(NC(=O)c2ccc3c(c2)C(=O)N(C2CCCCC2)C3=O)c1
  -0.5 | -0.4
CCOC(=O)c1c(NC(=O)/C=C/C(=O)O)sc2c1CCN(C(C)=O)C2
  -0.35 | x
COc1cc(C(=O)N2CCNCC2)cc(OC)c1OC
  -1 | 0.17
c1ccc(CCNCc2ccccc2)cc1
  -1.1 | 0.21
O=[N+]([O-])c1cccc(-c2csc(-c3cccnc3)n2)c1
  x | 0.21
O=C(CSc1nc2cc(C(=O)NCCCN3CCOCC3)ccc2c(=O)n1CC1CCCO1)c1ccccc1 (stereo not drawn)
  x | 0.49
NC(=O)C1CCCN(Cc2ccc(Cl)cc2)C1 (stereo not drawn)
  -0.35 | -0.19
c1ccc(Cc2nnc3sc(Nc4ccccc4)nn23)cc1
  -0.7 | -0.49
O=C(CN1CCN(S(=O)(=O)c2ccc3c(c2)OCCCO3)CC1)N1CCC(c2ccccc2)=N1
  -0.1 | x
COc1cc(=O)[nH]c(SC(C)C(=O)Nc2ccccc2)n1 (stereo not drawn)
  0 | x
C/C(CC1(CC(C)C)CCCCC1)=N\NC(N)=O
  x | 0.27

Grouped by structure: those above with a CF3 group
Every second line gives: AID504770 | Ba CapD inh
O=C1N/C(=C/c2ccc(C(F)(F)F)cc2)C(=O)N1c1ccccc1
  -0.45 | -0.81
NC(=O)c1cc2cc(Cl)cc(Cl)c2oc1=Nc1cccc(C(F)(F)F)c1
  x | -0.2
FC(F)(F)c1cc(-c2ccccn2)nc2cc(C3CC3)nn12
  2.5 | 0.21
CC(C)(C)OC(=O)NC1CCN(c2nccc(C(F)(F)F)n2)CC1
  1.4 | -0.47

Screens as filed in PubChem.
